HPGD block: inhibitors of human 15-hydroxyprostaglandin dehydrogenase (HPGD). P15428. purified HPGD, NADH fluorescence kinetic, PGE2 substrate. Potency, µM, for inactives: at the top dose activity change, negative = inhibition, hits mostly inhibitors. actives 4.3% (n = 150,000); active = well fitted inhibition curve with a large enough effect (not every such curve was filed as active); inconclusive = small, poorly fitted or top-dose-only effect, or another doubt; inactive = no such curve, though single readings can be large or run the other way;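 further: top concentration of the series not given in the record; plate controls included wells without enzyme; inactives centre near -10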
Target sequence (P15428 whole entry, looked up): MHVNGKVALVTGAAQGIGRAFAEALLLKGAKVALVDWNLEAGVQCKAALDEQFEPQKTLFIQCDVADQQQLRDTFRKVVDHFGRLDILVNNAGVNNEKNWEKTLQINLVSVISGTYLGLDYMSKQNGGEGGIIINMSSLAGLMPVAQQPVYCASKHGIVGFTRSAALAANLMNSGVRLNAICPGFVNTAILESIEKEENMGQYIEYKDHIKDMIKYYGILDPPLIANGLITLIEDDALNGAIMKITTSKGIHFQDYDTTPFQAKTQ
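NADH formation kinetics: reaction with 30 uM PGE2 and 1 mM NAD+ (final), 20 nM enzyme, Tris-HCl pH 8 with Tween 20, after 15 min compound preincubation at room temperature. Fluorescence change, last versus first of five reads.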
* = called active by the depositor; & = joins results of further samples. On the % scale 0 is the no-effect control and ±100 the full control effect; potency means the concentration at half of the fitted maximal effect.

How did Cc1c(Nc2nc3ccccc3nc2N2CCN(c3ccccc3)CC2)c(=O)n(-c2ccccc2)n1C do in these assays?
HPGD block: -19%

Results for COc1ccccc1-c1noc(-c2ccco2)n1 ?
HPGD block: -5%

What do the screens show for `O=C(NCc1ccc2c(c1)OCO2)c1ccc2c(c1)C(=O)N(CC1CCCO1)C2=O` (stereo not given)?
HPGD block: -18%

What do the screens show for `COc1ccc(C)cc1NC(=O)C1CCC(CNc2c(N3CCOCC3)c(=O)c2=O)CC1` (stereo not given)?
HPGD block: -15%

What do the screens show for `O=C(Oc1ccc(-c2cnc3ccccc3n2)cc1)c1cccc([N+](=O)[O-])c1`?
HPGD block: -8%

How did COc1ccccc1CN1CC[C@@]2(CCCN(C(=O)c3cnccn3)C2)C1 do in these assays?
HPGD block: -5%

How did Cc1ccc(Nc2nc(=O)c3cccnc3s2)cc1 do in these assays?
HPGD block: -29%

Results for Cc1ccc(C2C(C#N)=C(N)Oc3n[nH]c(-c4cccs4)c32)s1 (stereo not given) ?
HPGD block: -13%

How did O=C(CSc1nc2ccsc2c(=O)n1NC(=O)c1ccccc1)NCc1ccco1 do in these assays?
HPGD block: -3%

Results for C=CCSc1ncnc2sc(C)c(C)c12 ?
HPGD block: -29%

How did CC(C)(C)N(NC(=O)c1ccccc1)C(=O)c1cccc(C(=O)N(NC(=O)c2ccccc2)C(C)(C)C)c1 do in these assays?
HPGD block: 4%

Results for Cc1cccc(OCCCSc2nc3ccc(C)cc3[nH]2)c1 ?
HPGD block: -7%

What do the screens show for `CCN1CCN(C(=O)CN(CCc2ccccc2)S(C)(=O)=O)CC1`?
HPGD block: -1%

What do the screens show for `COC(=O)c1ccccc1COn1c(=O)c(C)[n+]([O-])c2ccccc21`?
HPGD block: -4%

Results for CCc1nc(SCC(N)=O)c2c(=O)n(C)c(=O)n(C)c2n1 ?
HPGD block: -11%

What do the screens show for `Cc1ccc(OCC(O)Cn2c(=N)n(Cc3ccccc3)c3ccccc32)cc1` (stereo not given)?
HPGD block: -15%

Results for COc1cc(OC)nc(NC(=O)C(C)C)n1 ?
HPGD block: -15%

How did CCN(CC)CCN1C(=O)C(O)=C(C(=O)c2cccs2)C1c1ccccn1 (stereo not given) do in these assays?
HPGD block: -24%

What do the screens show for `CCOc1ccc(C(=O)N2CCC(C(=O)c3ccc4c(c3)OCCO4)CC2)cc1`?
HPGD block: -9%

What do the screens show for `CCCCCCNS(=O)(=O)c1ccc(OC)c(OC)c1`?
HPGD block: -4%

What do the screens show for `CC(C)(CCc1nc2ccccc2[nH]1)C(=O)O`?
HPGD block: -13%

What do the screens show for `CN1CCN(CC#CCC(O)(c2ccccc2)C2CCCC2)CC1` (stereo not given)?
HPGD block: -3%

Results for CN1CCc2cc(Cl)c(O)cc2[C@@H](c2ccccc2)C1 ?
HPGD block: -20%

How did CC(=O)c1c(N2CCN(C)CC2)[nH]c(-c2ccccc2)nc1=S do in these assays?
HPGD block: -10%

How did Cc1ccc(Sc2ccc([N+](=O)[O-])cc2[N+](=O)[O-])nc1 do in these assays?
HPGD block: -8%

Results for Cc1nnc(N2CCCCC2)c2ccccc12 ?
HPGD block: -13%

Results for O=C(Nc1nnc(-c2ccccn2)o1)c1ccc(Br)cc1 ?
HPGD block: -17%

What do the screens show for `O=C(NCC1CCCO1)c1ccc(CS(=O)(=O)c2c(Cl)cccc2Cl)o1` (stereo not given)?
HPGD block: -4%

Results for COc1cccc(OCC(O)CN2C(C)CCCC2C)c1 (stereo not given) ?
HPGD block: -6%

What do the screens show for `COc1cc2c(cc1OC)C(c1cc3cc(OC)c(OC)cc3[nH]c1=O)N(C(=O)C1CC1)CC2` (stereo not given)?
HPGD block: inconclusive

Results for COc1cc(/C=N/NC(=O)C(C)Nc2n[nH]c(=O)[nH]c2=O)ccc1O (stereo not given) ?
HPGD block: inconclusive

Results for CCOc1ccc(C(=O)C(CCC(CN(C)C)C(=O)c2ccc(OCC)cc2)CN(C)C)cc1 (stereo not given) ?
HPGD block: 2%

Results for CC(=O)OCC(=O)[C@@]12OC3(CCCC3)O[C@@H]1C[C@H]1[C@@H]3CCC4=CC(=O)C=C[C@]4(C)[C@@]3(F)[C@@H](O)C[C@@]12C ?
HPGD block: -11%

Results for O=Nc1c(O)n(Cc2ccc(Cl)cc2)c2ccccc12 ?
HPGD block: -29%

Results for COc1ccc(C(C(=O)NC2CCCC2)N(C(=O)c2snc(-c3ccc(F)cc3)c2N)c2cccc(F)c2)cc1 (stereo not given) ?
HPGD block: -7%

Results for O=C(Nc1cccc(-c2cn3cccnc3n2)c1)c1cccs1 ?
HPGD block: inconclusive

What do the screens show for `Nc1nc(SCC(=O)N2CCCc3ccccc32)[nH]c(=O)c1-c1ccccc1`?
HPGD block: -16%

Results for Cc1csc(SCc2ccc(C(=O)O)cc2)n1 ?
HPGD block: -24%

Results for CCOc1ccccc1Nc1nc2ccccc2[nH]1 ?
HPGD block: -5%

How did c1ccc(CSc2ncnc3c2sc2nc(N4CCOCC4)c4c(c23)CCCC4)cc1 do in these assays?
HPGD block: inconclusive

4 entries from above, sorted by count of non-hydrogen atoms, high to low:
Results for COc1ccc(C(C(=O)NC2CCCC2)N(C(=O)c2snc(-c3ccc(F)cc3)c2N)c2cccc(F)c2)cc1 (stereo not given) ?
HPGD block: -7%

How did c1ccc(CSc2ncnc3c2sc2nc(N4CCOCC4)c4c(c23)CCCC4)cc1 do in these assays?
HPGD block: inconclusive

Results for COc1cc(/C=N/NC(=O)C(C)Nc2n[nH]c(=O)[nH]c2=O)ccc1O (stereo not given) ?
HPGD block: inconclusive

Results for CCOc1ccccc1Nc1nc2ccccc2[nH]1 ?
HPGD block: -5%

Quoted at random: six compounds from above.
Results for CCOc1ccccc1Nc1nc2ccccc2[nH]1 ?
HPGD block: -5%

Results for O=C(Nc1cccc(-c2cn3cccnc3n2)c1)c1cccs1 ?
HPGD block: inconclusive

Results for COc1ccc(C(C(=O)NC2CCCC2)N(C(=O)c2snc(-c3ccc(F)cc3)c2N)c2cccc(F)c2)cc1 (stereo not given) ?
HPGD block: -7%

Results for Cc1csc(SCc2ccc(C(=O)O)cc2)n1 ?
HPGD block: -24%

Results for CC(=O)OCC(=O)[C@@]12OC3(CCCC3)O[C@@H]1C[C@H]1[C@@H]3CCC4=CC(=O)C=C[C@]4(C)[C@@]3(F)[C@@H](O)C[C@@]12C ?
HPGD block: -11%

What do the screens show for `Nc1nc(SCC(=O)N2CCCc3ccccc32)[nH]c(=O)c1-c1ccccc1`?
HPGD block: -16%

The listing picks up, repeating the 3 entries before the break.
Results for Cc1csc(SCc2ccc(C(=O)O)cc2)n1 ?
HPGD block: -24%

Results for CCOc1ccccc1Nc1nc2ccccc2[nH]1 ?
HPGD block: -5%

How did c1ccc(CSc2ncnc3c2sc2nc(N4CCOCC4)c4c(c23)CCCC4)cc1 do in these assays?
HPGD block: inconclusive

Results for COCCSc1ccccc1C(=O)Nc1nnc(C)s1 ?
HPGD block: -15%

Results for CN(C)C(=O)N1CCCC(C(=O)NCCc2ccccc2)C1 (stereo not given) ?
HPGD block: inconclusive

Results for Cc1cc(C)nc(N2CCN(c3nnnn3-c3ccccc3)CC2)n1 ?
HPGD block: -6%

What do the screens show for `Cn1nc(C(=O)Nc2sccc2C(N)=O)ccc1=O`?
HPGD block: -23%

Results for O=C(CSCc1ccc(Cl)cc1)NN=C1CCCCCC1 ?
HPGD block: -14%

Results for CCN1CCN(C(=O)c2ccc(Sc3ccccc3Cl)c([N+](=O)[O-])c2)CC1 ?
HPGD block: -10%

What do the screens show for `Cc1onc(-c2ccccc2)c1C(=O)N1CCC(C)CC1`?
HPGD block: -10%

What do the screens show for `Cc1cc2oc(=O)cc(CSc3nnc(-c4cccs4)o3)c2cc1C(C)C`?
HPGD block: -15%

How did CC(C)NC(=S)N1CCN(c2ncccn2)CC1 do in these assays?
HPGD block: -3%

How did c1ccc(-c2nnc(SCc3nc4ccccc4[nH]3)n2Cc2ccco2)cc1 do in these assays?
HPGD block: -21%

How did Cc1oc(-c2ccc(Cl)cc2)nc1CN1CCCC(C(=O)N2CCN(C(=O)c3ccco3)CC2)C1 (stereo not given) do in these assays?
HPGD block: -1%

Results for CC(OC(=O)c1cccc(N2C(=O)c3ccccc3C2=O)c1)C(=O)Nc1ccc(N(C)C)cc1 (stereo not given) ?
HPGD block: -16%

What do the screens show for `O=[N+]([O-])c1cccc(/C=N\Nc2ccc3ccccc3n2)c1O`?
HPGD block: -11%

What do the screens show for `Cc1c(NC(=O)CN2c3cccc4cccc(c34)S2(=O)=O)c(=O)n(-c2ccccc2)n1C`?
HPGD block: -29%

What do the screens show for `CCCc1cc(=O)n2[nH]c(NCc3cccs3)nc2n1`?
HPGD block: -20%

How did C=CCn1c(CCC(=O)Nc2ccc(C)c(Cl)c2)nnc1SCC(=O)Nc1ccccc1C do in these assays?
HPGD block: -7%

What do the screens show for `C=C(CC1([C@@H](NP(=O)(c2ccccc2)c2ccccc2)[C@H]2C[C@@H]2CCCC)CC1)c1cccc(OC)c1`?
HPGD block: -17%

How did O=[N+]([O-])c1ccc2cn[nH]c2c1 do in these assays?
HPGD block: -13%&-9%

What do the screens show for `COc1ccc(-n2c(CCc3ccccc3)nnc2SCC(=O)NCc2ccccc2)cc1`?
HPGD block: -14%

What do the screens show for `Cc1ccc(C(=O)NC(=S)Nc2ccccc2C(F)(F)F)cc1C`?
HPGD block: -21%

What do the screens show for `C[C@H](NC(=O)NCc1ccc(F)cc1)C(=O)O`?
HPGD block: -2%

How did Cc1cc(C(=O)Nc2c(C)n(C)n(-c3ccccc3)c2=O)c2ccccc2n1 do in these assays?
HPGD block: -2%

Results for CCC(CC)n1[nH]c(=O)cc1N ?
HPGD block: -4%

How did COc1ccc(OCC(=O)NNC(=O)c2cccs2)cc1 do in these assays?
HPGD block: -4%

How did CC(C)C(=O)NC(c1ccccc1)c1cc([N+](=O)[O-])c2cccnc2c1O (stereo not given) do in these assays?
HPGD block: -13%

How did CC(=O)ON1C(C)(C)Cc2noc(N)c2C1(C)C do in these assays?
HPGD block: -8%

Results for O=C(c1cccc(F)c1)N1CCC2(CC1)CN(C(c1ccccc1)c1ccccc1)C2 ?
HPGD block: -14%

How did COc1ccc(C)cc1Cn1c(S(C)(=O)=O)nc2ccccc21 do in these assays?
HPGD block: -14%

What do the screens show for `CC1CCN(C(=O)COc2ccccc2F)CC1`?
HPGD block: 25µM*

What do the screens show for `O=C(c1ccc(S(=O)(=O)Nc2ccc(F)cc2)cc1)N1CCN(C(=O)c2ccco2)CC1`?
HPGD block: -9%

What do the screens show for `Cc1ccccc1C(=O)Nc1ccccc1Sc1ccccc1`?
HPGD block: -13%

What do the screens show for `CC(C)(C)c1ccc(C(=O)NCC(=O)OCC(=O)Nc2ccccc2[N+](=O)[O-])cc1`?
HPGD block: -11%

What do the screens show for `CS(=O)(=O)N1Cc2ccccc2CC1C(=O)OCC(=O)Nc1ccc2ccccc2c1` (stereo not given)?
HPGD block: -11%

Results for COc1cccc(C2C(C#N)=C(N)N(c3ncn[nH]3)C3=C2C(=O)CCC3)c1 (stereo not given) ?
HPGD block: -15%

Results for O=C1NC(c2cn(-c3ccccc3)nc2-c2cccs2)C(C(=O)c2cccnc2)C(O)(C(F)(F)F)N1 (stereo not given) ?
HPGD block: 0%

Results for Cc1ccc(C(=O)NNC(=O)C2CCN(Cc3ccc(Cl)c(Cl)c3)CC2)cc1 ?
HPGD block: -1%

Results for c1cn2cc(-c3ccc4c(c3)OCO4)nc2s1 ?
HPGD block: 32µM*

Results for CC1CN(C(=O)c2ccncc2)CC(C)O1 (stereo not given) ?
HPGD block: -12%

Results for NC(=O)C1CCN(C(=O)CCCCCn2c(=O)[nH]c3ccsc3c2=O)CC1 ?
HPGD block: inconclusive

What do the screens show for `Cc1cc(NC(=O)CSc2nnc(-c3cccnc3)n2C2CCCCC2C)no1` (stereo not given)?
HPGD block: -8%

Results for CCOc1ccc2nc(Cl)c(C3CC(c4ccco4)=NN3S(=O)(=O)c3ccccc3)cc2c1 (stereo not given) ?
HPGD block: -15%

What do the screens show for `CS(=O)(=O)N(CC(=O)NCCSCc1c(F)cccc1Cl)c1ccc2c(c1)OCO2`?
HPGD block: -13%

How did COc1ccc(NC(=O)CCNS(=O)(=O)c2ccc3c(c2)c(=O)n(C)c(=O)n3C)c(OC)c1 do in these assays?
HPGD block: -2%

What do the screens show for `CCOC(=O)CCc1c(C)n(CC)c2cc(-c3ccccc3OC)nn2c1=O`?
HPGD block: inconclusive

What do the screens show for `CCn1c(SCC(=O)Nc2nc3ccccc3s2)nnc1-c1ccc(Br)cc1`?
HPGD block: -10%

Results for O=C(NNS(=O)(=O)c1ccc([N+](=O)[O-])cc1)c1cnn(-c2ccccc2)c1-n1cccc1 ?
HPGD block: -3%

How did CN1CCN(CC(O)COc2ccc(OCC(O)CN3CCN(C)CC3)cc2)CC1 (stereo not given) do in these assays?
HPGD block: -2%

Results for CC1CCN(S(=O)(=O)c2cccc(C(=O)NCc3ccco3)c2)CC1 ?
HPGD block: -10%

What do the screens show for `CCCc1cc(=O)n2[nH]c(-c3ccco3)nc2n1`?
HPGD block: -22%

What do the screens show for `O=C(NC1CCCCCCC1)c1ccc(S(=O)(=O)N2CCCC2)cc1`?
HPGD block: -11%

What do the screens show for `CCOC(=O)c1oc2ccc(OC)cc2c1NC(=O)CN1CCN(C)CC1`?
HPGD block: inconclusive

Results for COc1cc(C(=O)NCCCN2CCCC2=O)cc(OC)c1OC ?
HPGD block: -1%

What do the screens show for `O=C(CN(Cc1ccc(F)cc1)S(=O)(=O)c1ccc(S(=O)(=O)N2CCOCC2)cc1)Nc1ccccc1`?
HPGD block: -8%

How did COc1ccc(-c2cc(C(F)(F)F)nc(S(=O)(=O)CCC(=O)N3CCOCC3)n2)cc1 do in these assays?
HPGD block: inconclusive

Results for CCc1ccc(N2C(=O)CN(Cc3cc(OC)c(OC)c(OC)c3)C2=S)cc1 ?
HPGD block: -8%

This is a subset; count on the stated rates, not on these rows.
